# Sa helicase inh: S. aureus DNA helicase inhibition | purified S. aureus helicase, fluorescence unwinding assay; about half of the hits fall short of the stated cut | inhibition, %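 (tested at about 80 µM)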 | 120,000 compounds, 0.05% hits;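 active = both duplicates at 50% or more, or one of them with a favoured structure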;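 note: 0% = mean of negative control wells and 100% = mean of positive control wells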
# MgrA-DNA mod: modulators of Staphylococcus aureus MgrA DNA binding. 84,000 compounds, 0.13% hits. fluorescence polarization. inhibition, %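 (about 10 µg/mL by stock and volumes)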;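 active = above 50% in either of two replicates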;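 note: 0% = protein plus DNA without compound and 100% = DNA alone without protein; higher means less MgrA bound to DNA so lower polarization; one replicate is shown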
# * = called active by the depositor; x = no result given.
SMILES,Sa helicase inh,MgrA-DNA mod
Cc1cc(C)cc(NC(=O)CCC2=NS(=O)(=O)c3ccccc3N2)c1,15,x
CN(C)S(=O)(=O)c1ccc(C(=O)N2CCN(Cc3ccc4c(c3)OCO4)CC2)cc1,16,x
CCOC(=O)/C=c1\[nH]c(=O)/c(=C\c2ccc3c(c2)OCO3)s1,-172,x
COc1c(Cl)cccc1-c1cn2ccc(C)cc2n1,x,-0.7
O=C(O)C1(S(=O)(=O)c2ccc(Br)cc2)CCCC1,-2,x
COC(=O)c1c(NC(=O)CN2CCN(C(=O)c3ccco3)CC2)sc2c1CCC2,1,0.9
O=C(O)COCCN1CCCC1=O,2,-5.5
CC(=O)Nc1cc(-c2nn3c(C)nnc3s2)ccc1C,8,x
O=C1S/C(=C\c2ccc3c(c2)OCO3)C(=O)N1Cc1ccccc1F,2,4.3
CC(c1nc2ccccc2[nH]1)N1CCCCC1 (configuration not stated),8,x
CC1CCCCN1C(=O)CSc1nnc(-c2ccc(Cl)cc2)o1 (configuration not stated),7,0.0
O/N=C(\Cc1nc2ccccc2s1)c1ccccc1,-31,-1.2
CC1C(C#N)=C(N)OC2=C1C(=O)CC(c1ccccc1)C2 (configuration not stated),16,x
O=C(Nc1cc(F)ccc1F)C1CCCN(c2ncnc3onc(-c4ccc(F)cc4)c23)C1 (configuration not stated),-11,x
O=C(c1ccccc1)N1N=C2CCCCC2C1(O)C(F)(F)F (configuration not stated),7,1.9
Cc1nn(CC(=O)NCCc2ccccc2)c(=O)c2cc3occc3n12,8,x
CCOC(=O)/C=C1\SCC(=O)N1CCN(C)Cc1ccc(SC)cc1,-3,x
Cc1ccc(COc2ncnc3cc(Cl)ccc23)cc1,x,-0.4
CC(Cc1ccccc1)C(N)=O (configuration not stated),12,-1.0
COc1ccc2cc(/C=N/NC(N)=O)c(Cl)nc2c1,-7,x
CC(=O)O[C@@H]1[C@@H](O)CN[C@@H]1Cc1ccccc1,x,0.6
CC(C)(CN1CCc2ccccc2C1)NS(=O)(=O)c1ccccc1,17,-1.1
CCOC(=O)c1nnn(CC(=O)NCc2ccc(F)cc2)c1C(=O)OCC,32,x
Clc1ccc(-c2noc(-c3sccc3Cl)n2)cc1,x,-1.8
CCOC(=O)N1CCN(C(=O)CN(Cc2cccc(C)c2)S(=O)(=O)c2ccc(Cl)cc2)CC1,10,4.2
SMILES,Sa helicase inh,MgrA-DNA mod
O=C(O)CN(CC(=O)O)c1ccccc1,0,-0.5
CNCc1ccco1,-7,x
Cc1csc(NC(=O)CSc2nnc(-c3ccoc3C)o2)n1,4,9.2
Cc1[nH]c(=O)[nH]c(=O)c1NC(=O)CC12CC3CC(CC(C3)C1)C2,19,0.6
O=C(c1ccccc1)N(Cc1cccnc1)Cc1ccc(Cl)cc1Cl,x,-1.6
COC(=O)c1cccc(NC(=O)C2COc3ccccc3O2)c1 (configuration not stated),x,0.1
COCCn1c(SC(C#N)Cc2ccc(C)cc2)nnc1-c1cccc(C)c1 (configuration not stated),-1,x
COc1cc(NC(=O)c2noc3c2CCC3)cc(OC)c1OC,-3,x
COCCN1Cc2cccc(C(=O)N3CCC(N4CCCCC4)CC3)c2C1=O,-21,x
CCC1(COCc2ccccc2)CCC(c2ccccc2)O1 (configuration not stated),4,-2.8
CCCn1c(=NC(=O)C2CC2)sc2cc3c(cc21)OCO3,-2,x
CC[C@@H]1[C@H]2CCCCN3[C@H]2[C@H](C[C@H]3[C@@H]2C[C@H](C)C(=O)O2)[C@@H]2[C@H]1OC(=O)[C@H]2C,6,0.5
Cc1ccc(S(=O)(=O)Cn2nnnc2C(C(C)C)N2CCSCC2)cc1 (configuration not stated),0,17
Cc1ccc(C(=O)N/C(=C/c2ccco2)C(=O)N2CCOCC2)cc1,-11,x
O=C(NCc1ccc2c(c1)OCO2)C1CCCN(S(=O)(=O)N2CCCCC2)C1 (configuration not stated),-22,x
CC1(C)C2CCC1(CS(=O)(=O)Nc1cccc(C(F)(F)F)c1)C(=O)C2 (configuration not stated),4,0.1
O=[N+]([O-])c1ccc(-c2cn3nc(C(F)(F)F)sc3n2)cc1,x,2.5
O=C(Nc1ccccc1)C1CCC1,-11,-1.1
O=C1Nc2ccc(Cl)cc2/C1=C/c1ccccc1,12,-0.2
CCN1C(=O)/C(=C\c2ccco2)C(C(=O)OC)=C1C,4,1.5
CC(=O)Nc1ccc(N2CCN(c3ccc(C(F)(F)F)cn3)CC2)nc1,x,-1.1
Cc1c(C)c2ccc(OCC(=O)O)c(C)c2oc1=O,21,x
O=C(COC(=O)c1n[nH]c2ccccc12)Nc1ccccc1,-15,-0.8
CCOC(=O)c1cc(-c2ccc(S(=O)(=O)N(CC)CC)s2)on1,-3,x
CCCSC(=S)NC1CCS(=O)(=O)C1 (configuration not stated),6,x
SMILES,Sa helicase inh,MgrA-DNA mod
C/C(=C\c1ccccc1)C(=O)Nc1cc(C)on1,2,2.8
N#CCC(=O)NCC1OCCc2ccccc21 (configuration not stated),27,2.2
O=C(Nc1nc(-c2ccc(Br)cc2)cs1)c1cc2cc([N+](=O)[O-])ccc2s1,x,-1.5
N#CCCn1cc(CNCCCn2cnc3ccccc32)c(-c2ccccc2)n1,-6,x
Cc1ncoc1C(=O)Nc1ccc(C(N)=O)cc1,22,-1.8
N#CCOC(=O)C1CSC2(c3ccc(Br)cc3)CCC(=O)N12 (configuration not stated),6,x
CCOc1ccccc1N(CC)C(=O)C1CCCN(c2ncnc3c2nc2n3CCCCC2)C1 (configuration not stated),5,-0.4
CCC/C(O)=C(\C#N)c1nc2ccccc2[nH]1,-3,x
N#C/C(=C\N1CCOCC1)S(=O)(=O)Cc1ccc(Cl)cc1,x,-0.2
C=CCN1C(=O)/C(=C/C(=O)OCC)c2ccccc21,x,4.2
O=c1n(-c2ccccc2)c(=O)n2n1C1CCC2C1,x,-1.1
CCCOc1ccc(C2C(C(=O)OCCOC)=C(C)NC3=C2C(=O)CC(c2ccccc2)C3)cc1OC (configuration not stated),x,4.1
CC1(C)CNC(=S)NC1,-17,x
COc1ccc(OC(=O)c2cnc3n(c2=O)CCS3)cc1,x,0.3
Cn1c(CNc2nc(-c3ccccc3)cs2)nnc1SCC(=O)c1ccccc1,4,0.9
CSc1sc(C(=O)N2CCc3ccccc32)cc1S(=O)(=O)C(C)C,x,0.8
CC(=O)Nc1ccc(Nc2nc3c(S(=O)(=O)c4ccc(C)c(C)c4)nnn3c3ccccc23)cc1,5,0.1
COc1cc(OC)c(NC(=O)C2=C(C)C(=O)OC23CCN(C(C)C)CC3)cc1Cl,24,x
COc1cc(OC)c(OC)cc1CNC(=O)CCc1c(C)noc1C,-8,x
N#C/C(=C\c1ccccc1)C(N)=O,5,2.1
Fc1ccccc1-c1nc(-c2cccnc2)no1,5,2.2
COC(=O)NC1CSCC1OC(=O)CCCN1C(=O)c2ccccc2C1=O (configuration not stated),3,1.4
Cc1[nH]n(-c2ccccc2)c(=O)c1Sc1nc2ccccc2[nH]1,7,x
Cc1sc2ncn(CC(=O)N(C)Cc3ccccc3)c(=O)c2c1S(=O)(=O)N1CCN(c2ncccn2)CC1,17,x
Cc1cc(Nc2ccc(C(=O)O)cc2)nc(N)n1,0,-2.8

# Some of the entries so far, bar-delimited:
SMILES | Sa helicase inh | MgrA-DNA mod
CC(=O)Nc1ccc(Nc2nc3c(S(=O)(=O)c4ccc(C)c(C)c4)nnn3c3ccccc23)cc1 | 5 | 0.1
COc1cc(OC)c(NC(=O)C2=C(C)C(=O)OC23CCN(C(C)C)CC3)cc1Cl | 24 | x
COc1cc(OC)c(OC)cc1CNC(=O)CCc1c(C)noc1C | -8 | x
N#C/C(=C\c1ccccc1)C(N)=O | 5 | 2.1

# The listing picks up; the 6 compounds before the break are reprinted first.
SMILES,Sa helicase inh,MgrA-DNA mod
N#C/C(=C\c1ccccc1)C(N)=O,5,2.1
Fc1ccccc1-c1nc(-c2cccnc2)no1,5,2.2
COC(=O)NC1CSCC1OC(=O)CCCN1C(=O)c2ccccc2C1=O (configuration not stated),3,1.4
Cc1[nH]n(-c2ccccc2)c(=O)c1Sc1nc2ccccc2[nH]1,7,x
Cc1sc2ncn(CC(=O)N(C)Cc3ccccc3)c(=O)c2c1S(=O)(=O)N1CCN(c2ncccn2)CC1,17,x
Cc1cc(Nc2ccc(C(=O)O)cc2)nc(N)n1,0,-2.8
COc1ccc(C)cc1NCC(=O)Nc1ncc(Cl)c(C)c1Cl,-16,2.5
CC1CCN(Cc2ccc(NC(=O)NCc3noc4ccccc34)cc2)CC1,-17,x
CCN(CC)S(=O)(=O)c1cccc(C(=O)N2CC(O)CC2C(=O)O)c1 (configuration not stated),9,-1.1
O=C1COc2ccc(C(=O)NC3CC3)cc2N1,8,-1.4
CC(=O)Nc1cccc(C(=O)OCC(=O)NC2CCS(=O)(=O)C2)c1 (configuration not stated),-3,x
CC(=O)N1c2ccc(S(=O)(=O)NC(C(=O)NCc3ccccc3)C(C)C)cc2CC1C (configuration not stated),0,-1.6
CSC(=NCc1c(N(C)C)cccc1N(C)C)NC#N,x,0.9
C=CCC(O)(CC=C)C(N)C(C)C (configuration not stated),-4,-2.6
CC(c1nnc(SCc2csc(-c3ccccc3)n2)n1-c1ccc(Cl)cc1)N(C)C (configuration not stated),-3,x
COCCn1c(SCC(=O)c2ccc(F)cc2)nc2ccccc21,22,x
CC(C)Nc1ccc(C(F)(F)F)cn1,16,0.9
O=C(COC(=O)c1ccc(C(O)c2ccccc2)cc1)c1ccccc1 (configuration not stated),9,x
O=C(NCc1ccccc1)c1cccc(NC2=NC3CS(=O)(=O)CC3S2)c1 (configuration not stated),10,-0.2
CCCC(C)C(=O)NCc1ccncc1 (configuration not stated),11,-1.8
c1ccc(N(c2ccccc2)c2nc(-n3nnc4ccccc43)nc(-n3nnc4ccccc43)n2)cc1,4,-2.8
O=C(Oc1ccc(-c2ccccc2)nn1)c1ccco1,-4,-1.9
CC12CCC(C1)C(C)(C)C2NS(=O)(=O)c1ccc(F)cc1 (configuration not stated),x,0.3
Clc1c2ccccc2c(/C=N/n2cnnc2)c2ccccc12,14,2.9
CCOc1ccccc1C(=O)n1cc(Cl)cn1,-2,1.6
CCOc1cc(-c2nc(-c3ccc(C)nc3OC)no2)cc(OCC)c1OCC,13,-3.1
CC(C)(C)n1nc(-c2ccc3c(c2)OCCO3)c2ccccc2c1=O,-4,x
Cc1ccc(-c2nnc(SCC(=O)Nc3cc(C)ccc3C)n2N)cc1,-12,x
CCCCN1C=C(C(=O)OC)C(c2cc(C)ccc2C)C(C(=O)OC)=C1,19,0.4
C=Cc1c(SC)sc(C(=O)O)c1C,x,1.1
CCCS(=O)(=O)c1cnc2cc(C3CC3)nn2c1N,x,-0.5
SMILES,Sa helicase inh,MgrA-DNA mod
CCS(=O)(=O)N1CCN(c2nc3ccccc3o2)CC1,12,x
Oc1oc(-c2ccco2)nc1C=Nc1ccccc1,7,-1.6
C[C@]12C=CC(=O)C=C1CCC1C2C(=O)C[C@@]2(C)C1CC[C@]2(O)C(=O)CO (some centres not stated),x,-0.3
CNS(=O)(=O)c1ccc2c(c1)OCCO2,-18,x
CN(C)S(=O)(=O)c1cccc(COC(=O)c2n[nH]c3ccccc23)c1,14,x
COc1cc(C(=O)Nc2cccc(C#N)c2)ccc1OC(F)F,-10,x
Cc1ccc(C(=O)Oc2c(CN3CCN(C)CC3)cc(Cl)c3cccnc23)cc1,3,x
CCOC(=O)c1cnc(Nc2ccccc2)nc1C(F)(F)F,6,x
COc1cc(CN(C)C(C)C(=O)NC2CCCCC2)ccc1OC(F)F (configuration not stated),4,x
S=C(Nc1cccc(Cl)c1)N1CCCN(Cc2ccccc2Cl)C1,2,-2.5
Cn1ncc2c(=O)sc(NC(=O)c3ccccc3)nc21,x,-2.4
COc1cc(/C=C2/C(=O)Nc3cc(Cl)ccc32)cc(OC)c1O,-98,x
COC(=O)CC[C@@H](C)[C@H]1CC[C@H]2[C@@H]3CC[C@@H]4C[C@H](O)CC[C@]4(C)[C@H]3C[C@H](O)[C@]12C,1,-0.7
Cc1ccc(NC2SC(=O)NC2=O)cc1Cl (configuration not stated),-1,0.8
CCOC(=O)Cc1c(C(=O)OCC)c(C)cn1C,x,-2.7
CC1CN(C(=O)C(C)Sc2nnnn2C)CC(C)O1 (configuration not stated),-5,x
Cn1cnnc1SCc1nc2ccccc2c(=O)n1CC#N,-1,x
O=C(c1ccccc1Nc1ccc(SC(F)F)cc1)N1CCCCC1,10,x
COc1cccc(-n2nnc3c(=O)n(C/C=C/c4ccccc4)cnc32)c1,4,x
O=C(COc1ccc2ccccc2c1)c1ccc(O)cc1O,3,0.5
CCCNC(=O)Nc1ccc(I)cn1,9,0.0
Cc1cccn2c(=O)cc(CN3CCC(C(=O)N4CCOCC4)CC3)nc12,-11,x
Cc1ccc(NC(=O)Nc2ccc3c(c2)N(C)C(=O)CS3)cc1,4,8.7
CSc1sc(-c2ccn[nH]2)c(-c2ccco2)c1C#N,x,1.4
CCN(c1ccccc1)S(=O)(=O)c1ccc2[nH]c(=O)cc(C)c2c1,-2,x

# The closing 3 entries of the section before open the next one:
SMILES,Sa helicase inh,MgrA-DNA mod
Cc1ccc(NC(=O)Nc2ccc3c(c2)N(C)C(=O)CS3)cc1,4,8.7
CSc1sc(-c2ccn[nH]2)c(-c2ccco2)c1C#N,x,1.4
CCN(c1ccccc1)S(=O)(=O)c1ccc2[nH]c(=O)cc(C)c2c1,-2,x
O=C1c2ccccc2C(=O)N1CCCSc1nccn1-c1cc(Cl)ccc1Cl,x,0.7
CN(C(=O)CSc1nnc(N)s1)c1ccccc1,2,0.9
CCCCS(=O)C1CCCCC1OC(=O)c1ccccc1 (configuration not stated),18,-3.9
COc1ccc(OC)c(CCNc2ccc3nncn3n2)c1,-14,x
CN(c1ccccc1C(=O)N1CCN(Cc2ccc3c(c2)OCO3)CC1)S(C)(=O)=O,14,0.3
Cc1ccc(Cl)cc1N1CCN(CCNC(=O)CCc2nnc3n(CC(C)C)c(=O)c4ccccc4n23)CC1,-13,x
CCc1nnc(SCc2nc(-c3ccccc3F)oc2C)c2cc3oc(C)cc3n12,-31,x
CCOC(=O)c1ccc(-n2c(C)cc(/C=C3\C(=O)N(c4ccccc4)N=C3C)c2C)cc1,x,0.3

# From PubChem

# This is a subset; the hit share may differ from the screen's.
